GALR2 agonist = agonists of human galanin receptor 2 (GALR2). O43603. GALR2-expressing cells, agonist activation read-out. activation, %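 (tested at 5 µM)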. 0.48% of 140,000 active. AID 803;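 active means above mean plus 3 SD of all compounds, about 5% in these data, not always enough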;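 further: 0% = vehicle buffer wells and 100% = reference agonist at full effect; tested in CHO reporter cells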
Target sequence (O43603 whole entry, looked up): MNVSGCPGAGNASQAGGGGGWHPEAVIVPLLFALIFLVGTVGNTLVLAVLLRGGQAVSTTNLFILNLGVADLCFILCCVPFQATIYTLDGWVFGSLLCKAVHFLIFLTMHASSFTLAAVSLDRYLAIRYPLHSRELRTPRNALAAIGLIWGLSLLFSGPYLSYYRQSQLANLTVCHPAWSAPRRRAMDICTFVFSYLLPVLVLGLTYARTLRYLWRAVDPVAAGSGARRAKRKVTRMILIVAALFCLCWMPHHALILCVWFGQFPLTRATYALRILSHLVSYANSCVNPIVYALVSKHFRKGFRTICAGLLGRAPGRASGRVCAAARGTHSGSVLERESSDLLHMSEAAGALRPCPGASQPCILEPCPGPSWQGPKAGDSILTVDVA
Insulin prom inh = TRM-6 insulin promoter activity inhibition; 0.9% of 130,000 active; inhibition, % at 2 µM; AID 1273; TRM-6 cells (human fetal islet line), insulin promoter-eGFP reporter, imaging; reporter expression induced with tamoxifen;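 active means inhibition above the mean plus 3 SD, with well images judged a real hit on visual review, cut at about 60% in these data, passing the limit was not always enough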
PKD1 kinase inh = blocks activity of human protein kinase D1 | Q15139 | PKD1 kinase fluorescence polarization assay | inhibition, %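 (about 10 µM by stock and volumes)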 | 0.056% of 200,000 active | AID 797;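 active means inhibition of 50% or more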;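 further: controls were vehicle for no effect and a reference inhibitor for full effect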
RGS16-Gao = RGS16-Galphao interaction regulator (human); 0.38% of 220,000 active; AID 1441; O15492+P09471; bead-based flow cytometry RGS16-Galphao binding, fluorescence; actives lie on both sides; binding response (% of control), % at 10 µM;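 active means below 25% or above 175%, edge rows of some plates excepted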;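 further: Galphao activated by GDP with aluminum fluoride before binding; 100% = wells without compound and 0% = beads without RGS; some results beyond the cut were filed as inactive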
Target sequence (O15492 whole entry, looked up): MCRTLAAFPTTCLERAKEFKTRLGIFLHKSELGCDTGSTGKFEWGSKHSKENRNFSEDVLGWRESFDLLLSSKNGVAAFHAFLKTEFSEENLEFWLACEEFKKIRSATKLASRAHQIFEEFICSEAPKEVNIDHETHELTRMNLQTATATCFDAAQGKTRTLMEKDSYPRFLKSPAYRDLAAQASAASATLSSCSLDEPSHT
Target sequence (P09471 whole entry, looked up): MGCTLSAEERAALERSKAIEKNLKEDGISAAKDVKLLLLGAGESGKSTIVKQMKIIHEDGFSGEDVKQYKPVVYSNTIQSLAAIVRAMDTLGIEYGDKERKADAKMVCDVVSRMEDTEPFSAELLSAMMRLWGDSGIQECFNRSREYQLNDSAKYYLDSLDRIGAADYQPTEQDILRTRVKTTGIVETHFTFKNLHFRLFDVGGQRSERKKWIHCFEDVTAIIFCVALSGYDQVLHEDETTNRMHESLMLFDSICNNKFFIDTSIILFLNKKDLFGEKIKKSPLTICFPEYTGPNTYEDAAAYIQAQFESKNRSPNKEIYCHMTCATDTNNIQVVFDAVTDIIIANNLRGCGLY
HSV replic up = HSV replication enhancement; HSV replication augmentation in cells, fold increase; maximum fold increase; 0.005% of 220,000 active; AID 1956;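 active means peak rise of 1.5-fold or more in the series; tested in PC3 cells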;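 further: first round at 10 µM; read as green reporter fluorescence; hits show the peak of a series up to 25 µM; 1 = signal of infected wells without compound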
Insulin prom inh cell count = also measured in Insulin prom inh; calls as there; normalized cell count, %; measured here: cell count, toxicity; reference of the scale not given here;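 cells exposed to compound for 48 h; stained nuclei by imaging scaled within each plate; lower means fewer cells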
HSV replic up primary fold = recorded beside HSV replic up, whose call it bears; fold increase; compound at 10 µM; measured here: primary screen fold increase 10 uM; tested in PC3 cells;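 GFP signal in the first replicate; 1 = infected wells without compound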
An asterisk follows results filed as active; i = inactive; x = not tested or not shown. This is a random part of the collection (roughly 1.1% active in at least one column).

The opening 15 records (preview)
SMILES	GALR2 agonist	Insulin prom inh	Insulin prom inh cell count	PKD1 kinase inh	RGS16-Gao	HSV replic up	HSV replic up primary fold
Cc1ccccc1-n1c(CSC(=N)N)nc2ccccc2c1=O	-2.5	-149	171	3	109	i	0.99
CCOC(=O)N1CCN(C(=O)c2oc3ccc(S(=O)(=O)N4CCCCCC4)cc3c2C)CC1	-1.0	-5	118	-5	104	i	0.59
Cc1c(NC(=S)NC(=O)CC(C)C)c(=O)n(-c2ccccc2)n1C	x	-80	46	-2	100	i	0.89
CCN(CC)CCCNC(=O)c1cc2c(=O)n(C)c3ccccc3c2n1C	-2.0	x	x	-3	104	i	1.2
CCN(CC)c1ccc2cc(C(N)=O)c(=O)oc2c1	1.2	-47	106	0	104	i	0.91
Cc1nn(S(=O)(=O)c2ccc(Cl)cc2)c(C)c1Sc1ccc([N+](=O)[O-])cc1	-0.6	36	84	-7	64	i	0.75
N#Cc1cnn2ccn(C3OC(CO)C(O)C3O)c12 (centres undefined)	x	x	x	x	88	i	0.88
CC(C)n1cnc2c(Nc3ccc(C(=O)O)cc3)nc(Cl)nc21	x	x	x	x	101	i	0.99
O=C(CSc1nc(-c2ccccc2)ns1)N1CCOCC1	x	0	127	-5	99	i	0.87
CC(C)C(c1nnnn1Cc1ccccc1)N1CCN(Cc2ccc3c(c2)OCO3)CC1 (centres undefined)	-2.0	x	x	-18	101	i	1.1
CCOc1cc(NC(=S)NC)c(OCC)cc1NC(=O)c1cccs1	x	x	x	x	96	i	0.89
Cc1nn(-c2ccccc2)c(/N=C/c2ccccc2O)c1-c1ccccc1	-0.5	36	192	0	104	i	0.95
O=C(c1cc(F)ccc1F)C1CCCN(C(=O)CCN2CCCCO2)C1 (centres undefined)	x	8	89	-2	99	i	0.98
COc1ccc(C2=CC(=O)OC3(CCCC3)O2)cc1	0.9	23	119	0	139	i	1
CCN1CCN(CC(=O)N2N=C(c3cccs3)CC2c2ccc(C)cc2)C(=O)C1=O (centres undefined)	x	x	x	-4	105	i	0.93

The listing, previewed entries included:
SMILES	GALR2 agonist	Insulin prom inh	Insulin prom inh cell count	PKD1 kinase inh	RGS16-Gao	HSV replic up	HSV replic up primary fold
Cc1ccccc1-n1c(CSC(=N)N)nc2ccccc2c1=O	-2.5	-149	171	3	109	i	0.99
CCOC(=O)N1CCN(C(=O)c2oc3ccc(S(=O)(=O)N4CCCCCC4)cc3c2C)CC1	-1.0	-5	118	-5	104	i	0.59
Cc1c(NC(=S)NC(=O)CC(C)C)c(=O)n(-c2ccccc2)n1C	x	-80	46	-2	100	i	0.89
CCN(CC)CCCNC(=O)c1cc2c(=O)n(C)c3ccccc3c2n1C	-2.0	x	x	-3	104	i	1.2
CCN(CC)c1ccc2cc(C(N)=O)c(=O)oc2c1	1.2	-47	106	0	104	i	0.91
Cc1nn(S(=O)(=O)c2ccc(Cl)cc2)c(C)c1Sc1ccc([N+](=O)[O-])cc1	-0.6	36	84	-7	64	i	0.75
N#Cc1cnn2ccn(C3OC(CO)C(O)C3O)c12 (centres undefined)	x	x	x	x	88	i	0.88
CC(C)n1cnc2c(Nc3ccc(C(=O)O)cc3)nc(Cl)nc21	x	x	x	x	101	i	0.99
O=C(CSc1nc(-c2ccccc2)ns1)N1CCOCC1	x	0	127	-5	99	i	0.87
CC(C)C(c1nnnn1Cc1ccccc1)N1CCN(Cc2ccc3c(c2)OCO3)CC1 (centres undefined)	-2.0	x	x	-18	101	i	1.1
CCOc1cc(NC(=S)NC)c(OCC)cc1NC(=O)c1cccs1	x	x	x	x	96	i	0.89
Cc1nn(-c2ccccc2)c(/N=C/c2ccccc2O)c1-c1ccccc1	-0.5	36	192	0	104	i	0.95
O=C(c1cc(F)ccc1F)C1CCCN(C(=O)CCN2CCCCO2)C1 (centres undefined)	x	8	89	-2	99	i	0.98
COc1ccc(C2=CC(=O)OC3(CCCC3)O2)cc1	0.9	23	119	0	139	i	1
CCN1CCN(CC(=O)N2N=C(c3cccs3)CC2c2ccc(C)cc2)C(=O)C1=O (centres undefined)	x	x	x	-4	105	i	0.93
O=C(Nc1cnccn1)Nc1ccc(Cl)cc1Cl	x	47	94	-5	x	i	0.72
Cc1ccc(NC(=O)COC(=O)c2ccc3c(c2)NC(=O)C2CCCN32)cc1 (centres undefined)	-2.0	x	x	-3	107	i	0.77
CCc1c(C)nc(N)n2c(SCC(=O)N3CCCc4ccccc43)nnc12	0.7	55	122	0	102	i	0.99
Cc1ccc(NC2c3ncccc3C(=O)N2Cc2cccs2)cc1 (centres undefined)	x	x	x	2	102	i	1.1
CCOC(=O)C1CCN(Cc2coc3ccc(Cl)cc3c2=O)CC1	-0.1	32	129	-12	99	i	1
Cc1ccc2c(c1)c1ncnc(N3CCN(c4ccccc4)CC3)c1n2C	-1.4	30	84	-8	94	i	0.84
CCCc1[nH]nc2c1C(C1CCCCC1)C(C#N)=C(N)O2 (centres undefined)	0.1	x	x	11	106	i	0.83
Cc1c(C(=O)OC(C)C)sc(NC(=O)c2cccnc2)c1C#N	-3.2	x	x	-13	95	i	0.97
CC(C)C(c1nnnn1C1CCCCC1)N1CCOCC1 (centres undefined)	-1.2	x	x	4	102	i	0.98
CCOC(=O)c1cnc(-n2nc(C)cc2C)nc1NC1CCCC1	x	x	x	x	89	i	0.79
Cn1c2c(c(=O)n(C)c1=O)C1c3ccccc3OCC1C(C)(C)O2 (centres undefined)	-1.9	x	x	8	103	i	1.2
Cc1ccc(-n2c(C)cc(C(=O)COC(=O)c3ccc[nH]c3=O)c2C)cc1	-0.2	7	62	-15	100	i	0.97
O=C(Nn1cnnc1)c1cccc(S(=O)(=O)N2CCOCC2)c1	x	-7	120	-1	98	i	0.98
O=C(CCN1CCOCC1)c1ccc(Cl)cc1	x	x	x	-6	103	i	0.82
CC1(C(=O)OCC(=O)N2c3ccccc3Sc3ccccc32)CC1(Cl)Cl (centres undefined)	-3.6	x	x	6	103	i	1
OC(CNCc1ccc(Cl)c(Cl)c1)c1ccccc1 (centres undefined)	x	x	x	-3	137	i	0.96
O=C(CC(=O)NC1CCCCC1)N/N=C/c1ccc(Cl)cc1	-2.9	58	105	-2	101	i	0.97
COc1ccc(C(CC(=O)c2ccccc2)S(=O)(=O)c2ccccc2)cc1 (centres undefined)	-0.5	47	59	-6	113	i	0.97
COc1ccc(CNC(=O)C2CSC(=O)C2)cc1 (centres undefined)	-1.9	-29	110	-5	103	i	0.99
CCOC(=O)c1ccc(NC2=CC(=O)C(=O)c3ccccc32)cc1	-2.2	21	96	-4	102	i	0.63
COc1ccc(-n2nnc3c(=O)n(CC(=O)N4CCCC4)cnc32)cc1	0.6	43	126	0	102	i	0.86
C/C(=N\NC(=S)NCc1ccccc1)c1ccc(C)o1	x	41	82	4	96	i	1.3
CCCCCn1c(C)c2c(OCC)cccc(=O)c2c1C	x	x	x	x	100	i	1.1
Cc1cc(N2CCOCC2)nc(-c2ccc(Br)cc2)n1	-2.3	20	161	-7	33	i	0.97
COc1ccc(OCC(O)CN2CCN(c3ncccn3)CC2)cc1 (centres undefined)	0.1	7	111	-17	87	i	0.94
O=C(O)c1cc(NCc2ccccc2C(F)(F)F)ccc1N1CCOCC1	-3.5	14	110	6	89	i	0.74
CCN(CC)CCSc1nc2ccc(OC)cc2[nH]1	x	x	x	x	100	i	0.9
CCc1ccc(C(=O)COC(=O)CNC(=O)c2ccco2)cc1	-0.2	x	x	-6	99	i	0.99
CN1CCN(C(=O)c2ccc(-c3cccs3)s2)CC1	x	x	x	x	100	i	1
CCOc1ccc(OCC)c(S(=O)(=O)NCc2ccccn2)c1	-1.6	69	41	-7	85	i	0.84
COc1cccc(CNC(=O)C2CCN(S(=O)(=O)c3cccs3)CC2)c1	-1.3	-13	128	6	90	i	1.2
Cc1ccc2cc(/C=N/NC(=O)[C@H](C)NC(=O)OC(C)(C)C)c(Cl)nc2c1	-0.1	x	x	5	93	i	0.97
C/C=C/COC(=O)c1[nH]c2c(c1C)C(=O)CC(c1ccco1)C2 (centres undefined)	0.6	x	x	8	96	i	0.77
COc1ccc(/C=C/C(=O)Nc2cccnc2)cc1OC	x	x	x	-2	103	i	0.9
Cn1c(=O)[nH]c(=O)c2c1nc1n2CCCN1CCc1ccccc1	-0.1	-24	121	2	61	i	1
COC(=O)c1cnn2c(C(F)(F)F)cc(-c3ccc(F)cc3)nc12	-0.3	x	x	-7	101	i	0.96
CCOC(=O)C1(CCc2ccccc2)CCN(Cc2c(O)cccc2OC)CC1	x	7	92	-2	105	i	0.74
COc1ccc(C(=O)NC(=S)Nc2cccc(S(=O)(=O)N3CCOCC3)c2)cc1	x	x	x	-1	106	i	0.74
O=C(CCN1C(=O)c2ccc([N+](=O)[O-])cc2C1=O)Nc1ccc(O)cc1C(=O)O	x	7	107	3	101	i	0.9
O=[N+]([O-])c1ccc(-c2ccn[nH]2)o1	-1.0	3	102	-3	100	i	1.1
O=S(=O)(c1ccccc1)N1CCC(O)(CSc2ccccc2)CC1	x	x	x	4	98	i	0.96
COc1cc(C(CC(=O)N2CCOCC2)c2c(OC)cc(OC)c3ccc(=O)oc23)cc(OC)c1OC (centres undefined)	x	x	x	x	100	i	0.84
CCOC(=O)c1c(O)c2c(n(Cc3ccco3)c1=O)CCCC2	-0.6	-200	63	-2	97	i	0.96
O=C1NCCN1c1ccc(CN2CCN(C3CCCCC3)C(CCO)C2)cc1 (centres undefined)	x	x	x	3	109	i	0.96
CCN(CCNC(=O)c1ccc(CSc2nc3ccncc3[nH]2)cc1)c1ccccc1	-0.6	-37	92	-7	127	x	x

Next records follow.
SMILES	GALR2 agonist	Insulin prom inh	Insulin prom inh cell count	PKD1 kinase inh	RGS16-Gao	HSV replic up	HSV replic up primary fold
Cc1c(/C=C/C(=O)c2cccs2)cnn1C	-0.8	14	91	0	49	i	0.87
O=C(c1cccc2ccccc12)N1CCN(c2ccccc2F)CC1	-0.5	x	x	-4	104	i	0.86
O=C(CSc1nnc(SCC(=O)c2ccco2)s1)c1ccco1	-0.8	31	84	11	97	i	0.86
O=S(=O)(c1cccs1)N1CCN(S(=O)(=O)c2cccs2)CC1	x	x	x	-8	105	i	0.93
O=C(Nc1ccc(F)cc1F)c1c(C(F)(F)F)ccnc1Oc1ccc(Cl)cc1	x	x	x	x	107	i	1.1
O=C(C(Sc1ccccc1)c1ccc(Br)cc1)N1CCOCC1 (centres undefined)	-1.0	x	x	-7	100	i	1.1
CCn1c(C)cc(=S)c2ccccc21	-1.9	43	97	5	78	i	0.88
O=C1OC2(CCCCC2)OC(=O)C1=CNc1ccc2c(c1)OCO2	-0.7	3	103	-10	97	i	0.91
Cc1ccc(NC(=S)NC2CCCCC2)cc1S(=O)(=O)N(C)C	x	14	76	1	83	i	0.98
CC[C@H](C)[C@@H]1NC(=O)c2cc([N+](=O)[O-])cc(I)c2SC[C@@H](C(N)=O)NC(=O)[C@H](CCCCN)NC1=O	-0.7	-14	116	2	104	i	0.86
NC(=O)Cn1nnc(-c2ccccc2NC(=O)c2cnccn2)n1	0.9	30	78	-2	101	i	1.1
O=C(NC(c1ccccc1)c1c(O)ccc2ccccc12)c1ccccc1Cl (centres undefined)	-1.8	-47	118	-1	88	i	0.89
CCOC(=O)CSc1nc2cccnc2n1-c1ccc(F)cc1	-1.8	-31	87	-2	99	i	1
C=CCOc1cccc(C2C(C(=O)c3ccc(C)o3)=C(O)C(=O)N2c2nccs2)c1 (centres undefined)	-1.5	x	x	76*	100	i	1.2
COc1ccc(CCNC(=O)c2ccc(CNS(=O)(=O)c3cccc(Cl)c3)cc2)cc1OC	-0.8	x	x	8	101	i	0.85
OCC1(Cc2ccccc2)CCN(CCCC2CCCC2)CC1	x	x	x	-6	101	i	0.97
C=CCn1c(SCCCc2ccccc2)nc2c1c(=O)[nH]c(=O)n2C	0.3	-57	135	-1	101	x	x
COCCNC(=O)c1ccc(CS(=O)(=O)c2c(Cl)cccc2Cl)o1	-1.6	x	x	-6	99	i	1
COc1ccc(NC(=O)C23CC4CC(C2)CC(n2cnc(Br)n2)(C4)C3)c(OC)c1	-0.9	18	98	-9	107	i	1

Screening data from PubChem.
